Bead autofluor: counter-screen for toxin protease inhibitors: compound fluorescence. compound autofluorescence counterscreen, microsphere flow cytometry; hits give high values. 3.1% of 360,000 active. fluorescence intensity (test concentration not listed);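 active means at least 3 SD above the mean of all compounds, about 16000 in these data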;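 further: 100 nL of 1 mM stock went into each well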
PrP 5UTR inh: suppresses PrP 5' UTR mRNA reporter expression | cell-based PrP 5' UTR mRNA reporter, plate reader | inhibition, % (concentration not given with the values) | 0.35% of 340,000 active;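 active means every replicate at 50% or more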;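 further: 0 = median of the neutral control wells; tested in H4 reporter cells; numbers are from one replicate; inactives centre near -14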
ugtP null kill: kills S. aureus RN4220 lacking UgtP; 0.54% of 330,000 active; growth inhibition, % (no concentration beside the values); S. aureus RN4220 ugtP deletion, OD600 growth, 16 h; some inactives read as strong as hits;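 active means z-score under -3 and OD600 up to 0.15 on both plates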;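 further: plate controls were untreated wells for no effect and antibiotic for full effect; wells of about 80 µL received 100 nL stock; the first replicate is given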
BJeLR lethal: BJeLR cell viability loss; BJeLR (HRASV12) viability, CellTiter-Glo ATP luminescence, 48 h; reference of the scale not given here; 0.17% of 300,000 active; inhibition, % (no concentration beside the values);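 active means replicate mean above 50%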;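 further: 50 nL library stock added to about 25 µL; numbers are from one replicate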
Mtb hypoxia inh: reduces hypoxia-regulated biosensor signal in M. tuberculosis. M. tuberculosis hypoxia-regulated fluorescent reporter, fluorescence. fluorescence inhibition, % (no concentration beside the values). 0.1% of 300,000 active. AID 1159583;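 active means 35 to 45% if threefold the growth effect, above 45% if 1.5-fold the growth effect; inactive means the rest, general growth blockers included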;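 further: wells of about 50 µL received 100 nL stock; 0% = vehicle wells and 100% = reference inhibitor wells; whole bacteria with a GFP reporter of the hypoxia response; strong numbers were not always called active; many hits fall short of the cut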
Sa RN4220 lethal: kills Staphylococcus aureus RN4220; S. aureus RN4220 growth, OD600, 16 h; inhibition, % (test concentration not listed); 0.33% of 330,000 active; AID 1259311;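 active means z-score of -3 or lower and OD600 up to 0.18 on both plates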;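 further: plate controls were untreated cells for no effect and reference antibiotic for full effect; stock transfer was 100 nL into about 80 µL; one replicate is shown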
Mtb hypoxia inh growth: further read-out of Mtb hypoxia inh, marked with its call; growth inhibition, %; measured here: M. tuberculosis growth (absorbance);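 0% = vehicle and 100% = reference antibiotic; read after six days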
Starred values were filed as active, the others as inactive; . = no result given.

SMILES | Bead autofluor | PrP 5UTR inh | ugtP null kill | BJeLR lethal | Mtb hypoxia inh | Mtb hypoxia inh growth | Sa RN4220 lethal
COc1cccc(NC(=O)C2CCCCC2)c1 | 3622 | -20 | 9 | 2 | . | . | 14
CC(C)(C)c1ccc(C(=O)Nc2ccc([N+](=O)[O-])cn2)cc1 | 2271 | -131 | -15 | 2 | 16 | 7 | -0.3
CCOc1cc(-c2nc3ccccc3s2)ccc1O | 3425 | -12 | 16 | -5 | 12 | 3 | 9.5
N#C/C(=C/c1cccc([N+](=O)[O-])c1)C(=O)Nc1ccccc1O | 3473 | . | -1 | -2 | -7 | -8 | -0.5
COc1ccc2ccccc2c1CNC(C)CCc1ccccc1 (configuration not stated) | 3563 | -28 | -12 | 9 | 8 | 13 | 3.3
COc1ccccc1NC(=O)C(=NOCc1ccc(F)cc1)C(C)=O | . | . | 3 | . | 13 | 4 | 5.9
CCOc1ccccc1C=Nn1c(COc2ccccc2)n[nH]c1=S | . | . | -1 | . | -6 | 10 | 5.5
CCOc1cccc(-c2cc(C(=O)N3N=C(C)CC3(O)C(F)F)c3ccccc3n2)c1 (configuration not stated) | 4253 | -28 | -6 | 0 | 13 | 7 | -1.8
CCOc1cc2c(C#N)c(N3CCCC3)nc(N)c2c(N)n1 | 4145 | -4 | 2 | -3 | -3 | 9 | 3.1
Cc1ccc(C(=O)NN=Cc2cc(Br)c(Br)o2)cn1 | . | . | 3 | . | 4 | 11 | -1.2

Quoted at random: seven entries already listed, in no set order.
SMILES | Bead autofluor | PrP 5UTR inh | ugtP null kill | BJeLR lethal | Mtb hypoxia inh | Mtb hypoxia inh growth | Sa RN4220 lethal
COc1cccc(NC(=O)C2CCCCC2)c1 | 3622 | -20 | 9 | 2 | . | . | 14
N#C/C(=C/c1cccc([N+](=O)[O-])c1)C(=O)Nc1ccccc1O | 3473 | . | -1 | -2 | -7 | -8 | -0.5
CCOc1cc2c(C#N)c(N3CCCC3)nc(N)c2c(N)n1 | 4145 | -4 | 2 | -3 | -3 | 9 | 3.1
CCOc1ccccc1C=Nn1c(COc2ccccc2)n[nH]c1=S | . | . | -1 | . | -6 | 10 | 5.5
CCOc1cc(-c2nc3ccccc3s2)ccc1O | 3425 | -12 | 16 | -5 | 12 | 3 | 9.5
Cc1ccc(C(=O)NN=Cc2cc(Br)c(Br)o2)cn1 | . | . | 3 | . | 4 | 11 | -1.2
COc1ccccc1NC(=O)C(=NOCc1ccc(F)cc1)C(C)=O | . | . | 3 | . | 13 | 4 | 5.9

The list continues.
SMILES | Bead autofluor | PrP 5UTR inh | ugtP null kill | BJeLR lethal | Mtb hypoxia inh | Mtb hypoxia inh growth | Sa RN4220 lethal
COc1cccc(C2CCCN2Cc2nc(-c3sccc3C)oc2C)c1 (configuration not stated) | 9942 | -8 | 7 | 2 | 4 | -2 | 6.8
O=C(C1=C(O)C(=O)N(CCN2CCOCC2)C1c1ccc(Cl)cc1)c1cc2ccccc2o1 (configuration not stated) | 5279 | -27 | 0 | 1 | -6 | 6 | 11
CN(C)CCOC(=O)c1ccc2c(c1)S(=O)(=O)c1ccccc1C2=O | 4470 | -5 | 6 | -1 | 6 | 6 | 6.9
CCN1CCN(c2nc3c(c(=O)n(C)c(=O)n3C)n2CCSc2ncccn2)CC1 | 8869 | -21 | -2 | -3 | 5 | 8 | 4.1
CS/C(N)=N/N=Cc1ccc2c(c1)OCO2 | . | . | -3 | . | 13 | -4 | -0.5
O=C(/C=C/c1ccccc1Cl)NNC(=O)c1ccncc1 | 3961 | 5 | -1 | . | 3 | 1 | 0.9
CCOC(=O)c1cn(C2CC2)c2c(F)c(F)c(F)cc2c1=O | 4280 | -11 | 10 | -3 | 12 | 2 | 4.5
Cc1cc(N2CCN(c3ccc([N+](=O)[O-])c4cccnc34)CC2)c2ccccc2n1 | 2603 | -4 | 3 | 12 | -8 | 5 | -0.3
Nc1ncc2[nH]c(N)nc2n1 | 4222 | -10 | 2 | . | 15 | 2 | 3.8
Cc1ccc(Cl)cc1N1CCN(S(=O)(=O)c2ccc3c(c2)OCCO3)CC1 | 3532 | -3 | 9 | -15 | . | . | -5.0
CSc1cccc(-n2ccc(=O)c(C)c2C)c1 | 3841 | -10 | 4 | -9 | 3 | -9 | 2.0
N#C/C(=C\c1ccc(OCc2ccc(C(=O)O)cc2)cc1)C(=O)N1CCOCC1 | 2517 | -13 | 5 | 15 | 9 | 11 | 4.8
Cn1c(CSc2nc3ccccc3n2C)nc2ccccc21 | 3899 | -18 | 1 | -3 | 6 | 6 | 3.4
Cc1cc(/C(N)=N/OC(=O)c2cccc(Cl)c2)no1 | . | -55 | 0 | -3 | -18 | -11 | 3.5
O=c1[nH]c2ccccc2cc1CN(CC1CCCO1)S(=O)(=O)c1ccc(Cl)cc1 (configuration not stated) | 6280 | -16 | 5 | 1 | 1 | -10 | 5.1
CCCNS(=O)(=O)c1cccn1-c1ncc(C(F)(F)F)cc1Cl | 3913 | -9 | 2 | 7 | . | . | 1.6
CCC(Oc1ccccc1)C(=O)Nc1ccccc1N1CCCC1 (configuration not stated) | 6520 | -14 | 3 | -5 | 6 | 2 | -1.4
COc1ccc2nc(Nc3sc4c(c3C(N)=O)CCCC4)sc2c1 | 2221 | -69 | 2 | . | 3 | 14 | 12
c1ccc(-c2cnnc(-c3ccccn3)n2)cc1 | 3334 | -30 | 0 | 4 | 5 | -3 | 3.9
Cc1cccc(N2CCN(C(=S)Nc3ccc4nc(N5CCOCC5)cc(C)c4c3)CC2C)c1 (configuration not stated) | 2343 | -3 | -1 | -2 | -9 | -2 | 2.9
Cc1c(C(=O)N2CCN(S(C)(=O)=O)CC2)oc2ccccc12 | 20670* | 5 | 18 | -2 | 4 | -2 | 0.0
CN(C)C(=O)c1ccc(NC(=O)CSc2nnc(-c3cccs3)n2N)cc1 | 3468 | -17 | 4 | . | 1 | -2 | 1.0
CCCNC(=O)CNC(=S)N(Cc1cc(OC)c(OC)c(OC)c1)C1CCCC1 | 3896 | -10 | -1 | 8 | 6 | 2 | 2.2
C#CCSc1nc(C)cc(C(=O)OCC)c1C#N | 5741 | -13 | 9 | -4 | 2 | -5 | 1.7
CC(C)c1ccc(N2C(=O)C3C4C=CC(CC4)C3C2=O)cc1 (configuration not stated) | . | -16 | 9 | -1 | 6 | 9 | 3.4
CC1(C)CC(=O)C=C(c2ccc(OC(F)(F)F)cc2)C1 | 4004 | -24 | -16 | . | 0 | 1 | -0.9
O=C(Nc1cccc(-c2ccc(F)cc2)c1)C1CCCN(C(=O)c2cscn2)C1 (configuration not stated) | 5739 | -15 | 6 | -8 | 7 | 3 | 0.5
Cn1cccc1/C=N/NC(=O)Cn1cnc2ccccc21 | 4789 | -30 | . | -3 | . | . | .
C1=CC2CCN(Cc3ccccc3)Cc3cccc(c32)C1 (configuration not stated) | . | . | 1 | . | 0 | 10 | 4.6
CC(NC(=O)Oc1ccccc1)C(c1cccs1)N1CCOCC1 (configuration not stated) | 7845 | -2 | 9 | 2 | 3 | 8 | 6.8
CCOC(=O)C(Cc1ccc(O)cc1)NC(=O)CNC(=O)C(CC(C)C)NC(=O)OC(C)(C)C (configuration not stated) | 2094 | -9 | 3 | -2 | -1 | 6 | 2.5
Cc1ccccc1C(=O)Nc1cccc(-c2nnc(SCC(=O)O)n2C)c1 | 4354 | -9 | -3 | -1 | . | . | 3.1
COC(=O)c1ccc(CSc2nnnn2-c2ccccc2)o1 | 3459 | -24 | 7 | 3 | . | . | 1.2
O=c1[nH]c2cc3c(cc2cc1CN(CCCO)Cc1nnnn1Cc1ccc(F)cc1)OCO3 | 2173 | -12 | -1 | 3 | . | . | 4.9
CC(=O)Nc1ccc2nc(-c3ccc(Br)o3)[nH]c2c1 | 2067 | -40 | 5 | 9 | 12 | 11 | -1.3
COc1ccc(CC2(CO)CCN(Cc3ccc4nsnc4c3)CC2)cc1 | 4751 | -23 | 2 | -11 | -11 | -10 | 1.8
COc1ccc(C(=O)NN=Cc2c(CO)cnc(C)c2O)cc1 | . | . | 7 | . | 5 | 2 | 1.9
COc1ccc(NC(=O)CC2C(=O)N(Cc3ccccc3)C(=S)N2CCN2CCOCC2)cc1 (configuration not stated) | 4299 | -12 | 1 | 3 | 5 | 3 | 2.6
O=c1c(C=NCCN2CCNCC2)c(-c2ccccc2)[nH]n1-c1ccc([N+](=O)[O-])cc1 | . | . | -3 | 7 | 7 | 13 | 1.1
CC1CN(c2ccc(C(=O)c3ccccc3C(=O)O)cc2[N+](=O)[O-])CC(C)O1 (configuration not stated) | 3974 | -11 | -2 | 3 | 6 | 4 | 1.2
CC(C)(C)OC(=O)NCCCCCNC(=O)c1ncn(Cc2ccccc2)c1C(=O)NCCCCCNC(=O)OC(C)(C)C | 2681 | 1 | -3 | . | 3 | 8 | -2.5
CC(C)CNC(=S)N1CCN(C(c2ccccc2)c2ccccc2)CC1 | 1940 | -13 | -15 | 3 | -4 | 34 | -8.5
CC[n+]1c(SC)ccc2cc(OC)ccc21 | 2242 | -32 | 2 | 7 | 12 | 3 | 1.9
COc1ccc(C2=NN(CC(=O)Nc3ccccc3C)C(=O)CC2)cc1 | 4858 | -18 | 11 | -12 | 4 | 5 | 1.2
Cc1cc(NC(=O)c2ccc(Cl)c([N+](=O)[O-])c2)no1 | 6054 | . | -4 | 1 | -10 | -10 | -5.8
CCOC(=O)N1CCC(n2c(=S)[nH]c3cc(OC)c(OC)cc3c2=O)CC1 | 5031 | -33 | 0 | -3 | -6 | 8 | 2.3
N/C(CSc1ncccc1C(F)(F)F)=N\O | 5625 | -15 | . | -1 | . | . | .
CCCCNC(=O)C1Cc2cc(S(=O)(=O)N3CCCCC3)ccc2N1C(C)=O (configuration not stated) | 5702 | -3 | 1 | 23 | 16 | -2 | -1.9
CC(C)(C)c1ccc(CNc2cc(N3CCOCC3)ccc2[N+](=O)[O-])cc1 | 3219 | -26 | 92* | -2 | 14 | 14 | -3.5
COc1ccc(NC(=S)Nc2ccc3cn[nH]c3c2)cc1 | 3388 | -14 | 4 | 4 | . | . | 2.9
(cont.)
SMILES | Bead autofluor | PrP 5UTR inh | ugtP null kill | BJeLR lethal | Mtb hypoxia inh | Mtb hypoxia inh growth | Sa RN4220 lethal
Cc1ccc(N2C(=O)C3C4C=CC(CC4)C3C2=O)cc1[N+](=O)[O-] (configuration not stated) | 3854 | -17 | 7 | -11 | 2 | 13 | 5.1
CC(CCc1ccc(O)cc1)N1CCC(Oc2ccc(C(=O)N3CCCC3)cc2)CC1 (configuration not stated) | 6757 | -5 | 4 | 3 | -1 | -2 | -0.4
O=C(O)CCC(=O)Nc1ccc(Br)cc1C(=O)c1ccc(Cl)cc1 | 3382 | -10 | 8 | -4 | 4 | 8 | 5.2
O=C(CN1CCN(Cc2ccccc2)CC1)c1ccc(Br)cc1 | 21164* | 13 | 6 | . | 12 | 11 | 4.2
COc1ccc(S(=O)(=O)N2CN3CCN(C3)C2)cc1OC | 3920 | -29 | 4 | -4 | 13 | -1 | 2.0
O=C(OCc1c(Cl)cccc1Cl)c1cccnc1 | 6380 | 4 | -1 | -10 | . | . | 0.4
Cc1cccc(-c2nsc(SCC(=O)Nc3ccc4c(c3)OCO4)n2)c1 | 2197 | -41 | -6 | -11 | 13 | 2 | -7.0
COc1cccc(/C=C/C(=O)OC(C)C(=O)Nc2c(C)n(C)n(-c3ccccc3)c2=O)c1 (configuration not stated) | 5092 | -9 | 9 | 4 | -5 | 5 | 3.7
S=C1NC[C@H](c2ccccc2)N1CC1CCCCC1 | 3772 | -15 | . | -5 | . | . | .
COc1ccc(C(C(=O)NC2CCCC2)N(Cc2ccccc2)C(=O)CNC(=O)c2ccco2)cc1 (configuration not stated) | 3795 | -1 | 13 | -11 | . | . | 5.6
COc1ccccc1CCNC1C2CC3CC(C2)CC1C3 (configuration not stated) | 2549 | -8 | -3 | 9 | 8 | -2 | 1.6
Nc1ccccc1OCCOCCOCCOc1ccccc1N | 4235 | 5 | -7 | -8 | -1 | -8 | -5.2
Nc1cc(OC(=O)c2ccc(F)cc2)nn1S(=O)(=O)c1ccc(F)cc1 | 5420 | -20 | 4 | 15 | 8 | 2 | 5.6
CC(NS(=O)(=O)c1ccc(OCC(=O)NCc2cccnc2)cc1)c1ccccc1 (configuration not stated) | 6502 | -20 | 4 | 0 | -4 | 10 | 0.3
COCCCn1c(=O)/c(=C\c2ccc(OC(F)F)c(OC)c2)s/c1=C(/C#N)C(N)=O | 4837 | -30 | . | 1 | . | . | .
